Screens deposited in PubChem BioAssay by several laboratories.
Arbovirus anti: antivirals against arbovirus infection, primary screen, cell-based, full library, 10K replicate subset; arbovirus infection cell-based antiviral screen; inhibition, % at 10 µM; 200,000 compounds, 0.37% hits;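 active = inhibition from about 30%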;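 also: bluetongue infection of BSR cells; cell survival read as ATP light after 72 h; 0% = infected wells without compound and 100% = uninfected wells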
YopH PTP inh: YopH tyrosine phosphatase inhibitors, primary screen, biochemical, fluorescence Ex485/Em525; YopH tyrosine phosphatase [Yersinia enterocolitica]; inhibition, %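 (about 10 µM by stock and volumes)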; 140,000 compounds, 0.16% hits; AID 898, 2007;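 active = inhibition of 50% or more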;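 also: controls were vehicle for no effect and minimum signal wells for full effect; inactives centre near -20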
Mtb H37Rv: M. tuberculosis H37Rv growth inhibitors, H37Rv strain (AID 1626) | M. tuberculosis H37Rv growth inhibition; higher % means a stronger effect | 220,000 compounds, 0.95% hits | inhibition, % at 10 µM; hits with a dose series show IC50 in µM;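 active = confirmed in a dose series; inconclusive = inhibition above 80% but not taken into the dose series; inactive = below 80% or under 30% at every dose of the series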;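 also: bacteria incubated seven days before Alamar blue readout; 0% = bacteria only wells and 100% = bacteria with antibiotic wells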
Mtb bLac sens: beta-lactam sensitization of Mtb H37Rv, H37Rv; M. tuberculosis H37Rv growth with meropenem, percent inhibition; hits of this screen are not shown here; inhibition, % at 25 µM; 330,000 compounds, 0.27% hits;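 active = about 74% or more and at least 40 points above the plate without the antibiotic, then above 30% in a dose series; inconclusive = first-round hits that could not be retested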;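 also: growth measured after seven days incubation then overnight dye step; 0% = bacteria only wells and 100% = bacteria with antibiotic; twin plates without the antibiotic show which effects depend on it; some results filed as inactive read as strong as hits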
RecA splice inh: Mtb RecA intein splicing inhibitors, primary screen, biochemical, fluorescence, HTS | Protein RecA (Mycobacterium tuberculosis (strain ATCC 25618 / H37Rv)), P9WHJ3 | cell-free RecA intein splicing | inhibition, %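 (about 9 µM by stock and volumes)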 | 290,000 compounds, 0.75% hits; in the data active = inhibition above about 30%; inconclusive = no clear call, values can overlap the other calls;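 also: 0% = vehicle wells and 100% = reference inhibitor control wells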
Target sequence (P9WHJ3 whole entry, looked up, canonical isoform): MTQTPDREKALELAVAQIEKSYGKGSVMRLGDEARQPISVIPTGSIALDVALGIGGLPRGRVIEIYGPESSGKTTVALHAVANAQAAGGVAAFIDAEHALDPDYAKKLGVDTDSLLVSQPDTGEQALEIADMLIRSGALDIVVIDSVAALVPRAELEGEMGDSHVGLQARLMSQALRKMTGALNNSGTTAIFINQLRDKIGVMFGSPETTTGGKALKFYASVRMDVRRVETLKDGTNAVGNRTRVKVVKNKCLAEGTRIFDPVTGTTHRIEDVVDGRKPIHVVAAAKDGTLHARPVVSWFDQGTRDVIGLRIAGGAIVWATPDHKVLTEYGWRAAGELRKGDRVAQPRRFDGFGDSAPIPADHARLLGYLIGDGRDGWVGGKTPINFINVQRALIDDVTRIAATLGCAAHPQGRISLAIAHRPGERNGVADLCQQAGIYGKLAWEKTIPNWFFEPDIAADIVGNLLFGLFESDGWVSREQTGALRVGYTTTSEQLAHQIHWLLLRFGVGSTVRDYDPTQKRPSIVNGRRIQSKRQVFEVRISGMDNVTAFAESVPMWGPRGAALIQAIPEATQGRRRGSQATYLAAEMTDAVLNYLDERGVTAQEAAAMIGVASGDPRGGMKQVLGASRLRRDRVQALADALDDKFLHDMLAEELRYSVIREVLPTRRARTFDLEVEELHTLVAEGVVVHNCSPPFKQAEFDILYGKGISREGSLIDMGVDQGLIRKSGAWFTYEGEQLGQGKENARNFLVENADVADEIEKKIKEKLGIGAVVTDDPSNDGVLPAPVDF
Arbovirus anti repeat: also measured in Arbovirus anti; calls as there; inhibition, %; measured here: 10K subset replicate screen; many hits read low in the repeat;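 first of two repeat runs on a subset; 0% = infected and 100% = uninfected wells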
Starred values were filed as active, the others as inactive. Not all compounds are listed. The share of hits here may be higher or lower than overall.

The first 2 records (preview)
What do the screens show for `CCOC(=O)/C(=C\C=C1/Sc2cc(OCC)c(OCC)cc2N1CC)C(C)=O`?
Arbovirus anti: -19; YopH PTP inh: -31; Mtb H37Rv: 54%; Mtb bLac sens: 63; RecA splice inh: -6.7

How did CN(C)/C=C1/C=C(c2ccccc2)OC1=O do in these assays?
Arbovirus anti: 5; YopH PTP inh: -2; Mtb H37Rv: -5%; Mtb bLac sens: 20; RecA splice inh: -0.6

The whole of this part, previewed entries included:
What do the screens show for `CCOC(=O)/C(=C\C=C1/Sc2cc(OCC)c(OCC)cc2N1CC)C(C)=O`?
Arbovirus anti: -19; YopH PTP inh: -31; Mtb H37Rv: 54%; Mtb bLac sens: 63; RecA splice inh: -6.7

How did CN(C)/C=C1/C=C(c2ccccc2)OC1=O do in these assays?
Arbovirus anti: 5; YopH PTP inh: -2; Mtb H37Rv: -5%; Mtb bLac sens: 20; RecA splice inh: -0.6

Results for CCN1C(=O)CC(C(=O)Nc2ccc(F)cc2)SC1=Nc1ccc2c(c1)OCO2 (stereo not given) ?
Arbovirus anti: 7; YopH PTP inh: -24; Mtb H37Rv: 18%; Mtb bLac sens: -4; RecA splice inh: 0.8

Results for CCOC(=O)C(C(=O)OCC)C(C)C#CCN1CCCCC1 (stereo not given) ?
Arbovirus anti: 0; YopH PTP inh: 3; Mtb H37Rv: -7%; Mtb bLac sens: -12; RecA splice inh: -1.6; Arbovirus anti repeat: 2

Results for O=C(N/N=C\c1cccnc1)c1ccc(Cl)s1 ?
Mtb bLac sens: -3; RecA splice inh: 1.0

Results for CCn1c(CN2CCOCC2)nnc1SCC(=O)Nc1ccccc1Cl ?
Mtb bLac sens: 1; RecA splice inh: 0.9

Results for COc1ccc(/C(C)=N/Nc2ccc(F)cc2F)c(O)c1 ?
Arbovirus anti: -14; Mtb H37Rv: inconclusive; Mtb bLac sens: 57; RecA splice inh: 1.9

What do the screens show for `COc1ccc(NC(=O)CN(C)C(=O)c2c(-c3ccccc3Cl)noc2C)cc1`?
Mtb bLac sens: -3; RecA splice inh: -0.6

Results for COC(=O)Nc1ccc(S(=O)(=O)N2CCC(C(=O)N(C)C3CCCCC3)CC2)cc1 ?
Arbovirus anti: 30*; Mtb H37Rv: 3%; Mtb bLac sens: 5; RecA splice inh: 0.5

How did O=C(O)CNC(=O)c1ccc(Sc2ccccc2)c([N+](=O)[O-])c1 do in these assays?
Arbovirus anti: -5; Mtb H37Rv: -5%; Mtb bLac sens: -12; RecA splice inh: 6.3

Results for N#CC1=C(N)Nc2nc3ccccc3n2C1c1ccc(F)cc1 (stereo not given) ?
Arbovirus anti: -11; YopH PTP inh: -8; Mtb H37Rv: 1%; Mtb bLac sens: 5; RecA splice inh: -5.1

What do the screens show for `O=C1OCCN1C(=O)[C@H]1[C@H](c2ccc(F)cc2)C(c2ccc(F)cc2)=NN1c1ccc(Br)cc1`?
Arbovirus anti: -30; YopH PTP inh: -21; Mtb H37Rv: 7%; Mtb bLac sens: 94; RecA splice inh: -29

Results for O=C(C1=NN(c2ccccc2)C(=O)CC1)N1CCc2ccccc2C1 ?
Mtb bLac sens: -6; RecA splice inh: 2.5

What do the screens show for `Nc1nnc(SCC(=O)OCC(=O)Nc2ccc(Br)cc2F)s1`?
Arbovirus anti: 9; Mtb H37Rv: -8%; Mtb bLac sens: -8; RecA splice inh: -3.5

Results for CC1CCCC(NC(=O)c2ccc3c(SCC(=O)O)c4c(nc3c2)CCC4)C1C (stereo not given) ?
Mtb H37Rv: -2%; Mtb bLac sens: -2; RecA splice inh: 1.1

Reprinted from the part before: 2 entries, followed by the next part.
What do the screens show for `Nc1nnc(SCC(=O)OCC(=O)Nc2ccc(Br)cc2F)s1`?
Arbovirus anti: 9; Mtb H37Rv: -8%; Mtb bLac sens: -8; RecA splice inh: -3.5

Results for CC1CCCC(NC(=O)c2ccc3c(SCC(=O)O)c4c(nc3c2)CCC4)C1C (stereo not given) ?
Mtb H37Rv: -2%; Mtb bLac sens: -2; RecA splice inh: 1.1

How did COc1ccc(C(=O)CSc2nnc(COc3ccccc3)n2Cc2ccco2)cc1 do in these assays?
Arbovirus anti: -9; YopH PTP inh: -38; Mtb H37Rv: 3%; Mtb bLac sens: 4; RecA splice inh: 7.1

What do the screens show for `CCN(CC)S(=O)(=O)c1cc(NC(=O)NCCCl)ccc1C`?
Mtb H37Rv: -3%; Mtb bLac sens: 11; RecA splice inh: -0.2

Results for O=C(c1ccc(Cl)cc1[N+](=O)[O-])N(Cc1ccccc1)Cc1ccccc1 ?
Arbovirus anti: -1; YopH PTP inh: -21; Mtb H37Rv: 5%; Mtb bLac sens: 2; RecA splice inh: 1.1

Results for CC(C)Cn1c(-c2csc3ccccc23)n[nH]c1=S ?
Arbovirus anti: 1; YopH PTP inh: -6; Mtb bLac sens: 50; RecA splice inh: -3.8

Results for CC(Sc1ccccc1)C(=O)N/N=C/c1cccnc1 (stereo not given) ?
Arbovirus anti: -7; Mtb H37Rv: -4%; Mtb bLac sens: 3; RecA splice inh: -4.0

How did NS(=O)(=O)c1ccc(O)c(N2C(=O)c3cccc4c(C(=O)c5ccccc5)ccc(c34)C2=O)c1 do in these assays?
Arbovirus anti: 13; Mtb H37Rv: 5%

What do the screens show for `CCc1ccc(-c2cc(C)no2)cc1S(=O)(=O)Nc1cccc(CN2CCCC2)c1`?
Mtb bLac sens: 0; RecA splice inh: 0.8

What do the screens show for `O=C(NCc1ccco1)C1CC(c2ccc(Cl)cc2)=NO1` (stereo not given)?
Arbovirus anti: -13; Mtb H37Rv: 8%; Mtb bLac sens: 1; RecA splice inh: -2.3

How did O=C(CSc1ncnc2c1oc1ccccc12)Nc1nccs1 do in these assays?
Arbovirus anti: -4; Mtb bLac sens: -2; RecA splice inh: -3.5

What do the screens show for `COC(=O)Cc1c(C)c2ccc(OCC(=O)N(C)C)cc2oc1=O`?
Arbovirus anti: 3; YopH PTP inh: -26; Mtb H37Rv: 1%; Mtb bLac sens: -1; RecA splice inh: 3.3

How did CN(C)c1ccc(CNc2ncn[nH]2)cc1 do in these assays?
Arbovirus anti: 0; Mtb H37Rv: -4%; Mtb bLac sens: 6

How did O=C(NCc1ccco1)c1ccc(CS(=O)Cc2cccc(Cl)c2)o1 (stereo not given) do in these assays?
Mtb bLac sens: -1; RecA splice inh: 1.2

What do the screens show for `Cc1cc(C(=O)COC(=O)CCc2nc3ccccc3s2)c(C)n1C`?
Arbovirus anti: 5; YopH PTP inh: -10; Mtb H37Rv: 3%; Mtb bLac sens: 12; RecA splice inh: 1.6

Results for Fc1ccc(CSc2ccc(-c3cccs3)nn2)cc1 ?
Arbovirus anti: -1; YopH PTP inh: -26; Mtb H37Rv: 7%; Mtb bLac sens: 6; RecA splice inh: -2.9

Results for COc1ccc(/C=C2\SC(=S)N(CCCC(=O)Nc3ccc(C(=O)O)cc3)C2=O)cc1OC ?
Mtb bLac sens: 12; RecA splice inh: 17

Results for CC(=O)Nc1ccc(S(=O)(=O)N2CCC(N3CCCCC3)CC2)cc1 ?
Mtb bLac sens: 2; RecA splice inh: -1.2

What do the screens show for `CC(C)CN1CCN(Cc2ccc(CN3CCCCC3)s2)CC1CCO` (stereo not given)?
Arbovirus anti: 13; Mtb H37Rv: 1%; Mtb bLac sens: -2

How did CCCc1cc(=O)[nH]c(SC(CC)C(=O)Nc2ccccc2C#N)n1 (stereo not given) do in these assays?
Arbovirus anti: 13; YopH PTP inh: -32; Mtb H37Rv: -6%; Mtb bLac sens: 1; RecA splice inh: 4.2

How did Cn1c(SCc2ccccc2Cl)nc2ccccc21 do in these assays?
Arbovirus anti: 0; YopH PTP inh: -23; Mtb H37Rv: 6%; Mtb bLac sens: 6; RecA splice inh: 1.2

Results for O=C(NC(=S)Nc1cccc(F)c1)c1cccc([N+](=O)[O-])c1 ?
Mtb H37Rv: 10%; Mtb bLac sens: 0; RecA splice inh: 1.1

How did Cc1nc(Cl)c(S(N)(=O)=O)c(C)c1Cl do in these assays?
Arbovirus anti: 13; Mtb H37Rv: -7%; Mtb bLac sens: -13; RecA splice inh: -0.4

What do the screens show for `O=C(O)c1ccccc1-c1ccccc1C(=O)Nc1ccccc1`?
Arbovirus anti: 2; YopH PTP inh: -31; Mtb H37Rv: -2%; Mtb bLac sens: 71; RecA splice inh: -1.2

How did COc1cc2c(cc1OC)C(C1C(=O)CCCC1=O)N(C(=O)CCl)CC2 (stereo not given) do in these assays?
Arbovirus anti: 3; YopH PTP inh: -18; Mtb H37Rv: -7%; Mtb bLac sens: 11; RecA splice inh: -12

What do the screens show for `COc1ccc(S(=O)(=O)N2CCC(C(=O)NC3CC3)CC2)cc1OC`?
Mtb bLac sens: -16; RecA splice inh: -1.5

Results for CC(NC(=O)CCc1ccc(S(=O)(=O)NC2CCCCC2)cc1)c1ccccc1 (stereo not given) ?
Arbovirus anti: -10; YopH PTP inh: -30; Mtb H37Rv: 1%; Mtb bLac sens: -9; RecA splice inh: -1.0

How did COc1ccc(C(CCN2CCCCC2)c2c(OC)cc(OC)c3c(-c4ccccc4)cc(=O)oc23)cc1 (stereo not given) do in these assays?
Mtb H37Rv: 7.2µM*; Mtb bLac sens: 100; RecA splice inh: 14

Results for COc1ccc(S(=O)(=O)N2CCOCC2)cc1NC(=O)c1cccc2c(=O)c(C)c(-c3ccccc3)oc12 ?
Arbovirus anti: -12; YopH PTP inh: -17; Mtb H37Rv: 10%; Mtb bLac sens: -7; RecA splice inh: 4.1

What do the screens show for `Cc1ccc(C)c(N2N=C(C(=O)Nc3nccs3)CCC2=O)c1`?
Arbovirus anti: 12; Mtb H37Rv: 0%; Mtb bLac sens: -5; RecA splice inh: 1.6

Results for O=C(Nc1nnc(Cc2ccccc2)s1)Nc1ccccc1F ?
Mtb bLac sens: -4; RecA splice inh: 2.2

How did COc1ccc(C(=O)N/N=C(\C)CC(=O)Nc2cccc(C(F)(F)F)c2)cc1 do in these assays?
Mtb H37Rv: 4%; Mtb bLac sens: 17; RecA splice inh: -0.4

Results for COc1ccc(C2C3=C(CC(c4ccco4)CC3=O)Nc3ccccc3N2C(C)=O)cc1 (stereo not given) ?
Arbovirus anti: 5; YopH PTP inh: -5; Mtb H37Rv: -2%; Mtb bLac sens: 4; RecA splice inh: 2.9; Arbovirus anti repeat: 6

Results for CCCN1CCC2(CC1)C(C#N)=C(N)Oc1c2sc2nc(C)cc(C)c12 ?
Arbovirus anti: -9; YopH PTP inh: -38; Mtb H37Rv: 4%; Mtb bLac sens: -8; RecA splice inh: -2.7

What do the screens show for `Cc1cccnc1CN1CCN(Cc2nc(C(c3ccccc3)c3ccccc3)no2)CC1`?
Arbovirus anti: -6; Mtb H37Rv: 11%; Mtb bLac sens: 48; RecA splice inh: 1.2

What do the screens show for `C=C(C)CSc1nc2c(c(=O)[nH]c(=O)n2C)n1CCC(C)C`?
Arbovirus anti: 6; YopH PTP inh: -49; Mtb H37Rv: 5%; Mtb bLac sens: -7; RecA splice inh: 0.1; Arbovirus anti repeat: -8

What do the screens show for `Cc1nn(Cc2ccccc2)c(Cl)c1C(=O)NC1CCCc2ccccc21` (stereo not given)?
Arbovirus anti: 30*; YopH PTP inh: 1; Mtb H37Rv: 13%; Mtb bLac sens: 8; RecA splice inh: 1.2

What do the screens show for `COc1ccc(/C=N/OCC(=O)OCC(=O)N(C)c2ccccc2)cc1`?
Mtb bLac sens: 93; RecA splice inh: 0.9

What do the screens show for `CCOC(=O)NC(O)C(=O)c1ccc(F)cc1` (stereo not given)?
Arbovirus anti: 2; Mtb H37Rv: -4%; Mtb bLac sens: 4; RecA splice inh: -0.2

What do the screens show for `O=C(COC(=O)[C@H](Cc1ccccc1)NC(=O)c1cccs1)Nc1cc(F)ccc1F`?
Arbovirus anti: 0; YopH PTP inh: -23; Mtb H37Rv: 2%; Mtb bLac sens: 1; RecA splice inh: 2.1

Results for O=C(CSc1ncccc1C(=O)O)NCCC1=CCCCC1 ?
Arbovirus anti: 8; YopH PTP inh: -7; Mtb H37Rv: -2%; Mtb bLac sens: inconclusive; RecA splice inh: -0.3

Results for Cc1nn(C)cc1S(=O)(=O)NC1CCCC1 ?
Arbovirus anti: -4; Mtb H37Rv: -2%; Mtb bLac sens: -9; RecA splice inh: -1.3

How did Cc1nn(-c2ccccc2)nc1CNC(=O)C(C)Cc1ccccc1 (stereo not given) do in these assays?
Arbovirus anti: -5; YopH PTP inh: -28; Mtb H37Rv: -3%; Mtb bLac sens: 0; RecA splice inh: 0.2

What do the screens show for `Cc1ccc(NC(=O)CN2C(=O)CSc3ccc(S(=O)(=O)N4CCCCC4)cc32)cc1`?
Mtb bLac sens: 4; RecA splice inh: 1.2
